Screening results deposited in PubChem by National Center for Advancing Translational Sciences (NCATS).
Methyltransferases: Primary Screen for Target Class Profiling of Small Molecule Inhibitors of Methyltransferases; 3.9% of 25,000 active; calls only at 40 µM; purified enzyme, MTase-Glo SAH luminescence; stronger effect = lower value; active = -50% or lower on at least one of six enzymes; inconclusive = the cases between; inactive = as a rule above -30% on all six;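 also: enzymes were COMT GAMT GNMT HNMT NNMT and PNMT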
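Each enzyme was reacted with SAM and its substrate, with compounds tested once at 40 uM; SAH formed was read by MTase-Glo luminescence.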
Calls only; i = inactive; ? = inconclusive; + = active, no number. % is scaled to controls: 0 for no effect and ±100 for the full control effect.

SMILES	Methyltransferases
COc1ccccc1N1CCN(C(=O)CCCc2nnc3n4nc(-c5ccccc5)nc4c4ccccc4n23)CC1	i
Cc1ccc(C)c(Cn2nc3n(C)c(=O)c4ccc(C(=O)NC5CCCC5)cc4n3c2=O)c1	i
CC(C)NC(=O)C[C@@H]1O[C@H](CNCc2ccc(F)cc2)[C@@H](O)[C@H]1O	i
CCCN1C(=O)c2cc(-c3ccc(OC)cc3)nn2CC1(C)C(=O)NCc1ccccc1OC (centres undefined)	i
CCN(CC)Cc1cnc2c(C(=O)N3CCCN4CCC[C@H]4C3)cnn2c1	+
CC1(C(=O)NC2CCCCC2)Cn2c(nc3ccccc32)C(=O)N1Cc1ccc(F)cc1 (centres undefined)	i
COc1cc(C)c(C(=O)O[C@H]2[C@@H](OC(C)=O)[C@H](n3ccc(=O)[nH]c3=O)O[C@@H]2CO)c(OC)c1	i
CC(C)=CCCC1(C)/C=C/C(OC(=O)C=C(C)C)C(C)(O)/C=C/C(=O)/C(CO)=C\C1 (centres undefined)	i
Oc1ccccc1-c1cc(C2=CCOCC2)c2cncn2c1	?
Fc1ccc(-c2cncc(CN3CCN(c4cccc5c4OCCO5)CC3)c2)cc1	i
CC(C(=O)NCc1cccc(F)c1)n1ccc2cc(S(=O)(=O)N3CCCCC3)ccc21 (centres undefined)	i
CCCN(CC1CCOC1)S(=O)(=O)c1cc(F)ccc1C (centres undefined)	i
CC1(C(=O)NC2CCCCC2)Cc2ccccc2C(=O)N1Cc1ccc(F)cc1 (centres undefined)	i
CC1(C(=O)NC2CCCCCCC2)Cn2c(cc3occc32)C(=O)N1CCc1ccc(Cl)cc1 (centres undefined)	i
COc1cc2ncnc(Nc3ccc(O)c(Br)c3)c2cc1OC	?
O=C(Cn1nc2n(Cc3ccccc3)c(=O)c3ccccc3n2c1=O)NCc1ccc(Cl)cc1	i
Cc1cc(=O)n(CC(=O)Nc2ccc3c(c2)OCCO3)c(N2CCc3ccccc3C2)n1	i
CC1(C(=O)NCc2ccc(F)cc2)Cn2cnc(C(=O)NC3CCCCC3)c2C(=O)N1C1CC1 (centres undefined)	i
CCCC(=O)N1CCC(O)(c2ccccc2)[C@H](N2CCCC2)C1 (some centres undefined)	i
CCCC1c2cccn2CCN1C(=O)Nc1ccc(F)cc1 (centres undefined)	i
CC1(C(=O)NCc2ccccc2)Cn2nc(-c3ccccc3)cc2C(=O)N1CCC1=CCCCC1 (centres undefined)	i
Cc1cnc(-c2ccccc2)n1C1CCN(S(C)(=O)=O)CC1	i
Cc1ccccc1OCc1nc(C2CN(C(=O)NC(C)C)C2)no1	i
Cc1nc(CNC(=O)[C@H]2CCC[C@@H](O)C2)nc2c1CCCC2	i
Cc1cc(N2CCC(NCc3cc(C)nn3C)CC2)nc(-c2ccccc2)n1	i
Additional results.
SMILES	Methyltransferases
C=C1CC[C@H]2C(=C)CC[C@H]3C(=C)C(=O)O[C@@H]3[C@@H]12	i
O=C1OCC(c2ccccc2)=C1Cc1ccccc1	i
O=C(N[C@@H]1CN(Cc2ccncc2F)C[C@H]1CO)C1CC1	i
CCCNC(=O)CCc1ccnc(N2CCCC2)c1	i
C=C1[C@H](OC(C)=O)[C@H]2[C@@H](OC(=O)c3ccccc3)[C@@H](C)C[C@]2(O)[C@@H](OC(C)=O)[C@H](C)/C=C/C(C)(C)C(=O)[C@H](OC(C)=O)[C@H]1OC(C)=O	i
CC(=O)O[C@H]1[C@H](C)[C@@H](O)[C@H]2[C@@H]1C=C(C(=O)O)[C@H]1C[C@@H]3[C@H]([C@H]21)[C@H]1C(=O)O[C@@H]2CC[C@@]3(C)O[C@]1(O)[C@@H]2C	i
COc1ccccc1CN1C(=O)c2ccc(-c3ccccc3)n2CC1(C)C(=O)NC1CCCCC1 (centres undefined)	i
Cc1cccc(N2C(=O)c3cc(C(C)(C)C)nn3CC2(C)C(=O)NC2CCCCC2)c1C (centres undefined)	i
CCOC(=O)c1cc2n(n1)CC(C)(C(=O)NCCC(C)C)N(c1cc(OC)cc(OC)c1)C2=O (centres undefined)	i
COc1ccc(CCN2C(=O)c3ccccc3CC2(C)C(=O)NC2CCCCC2)cc1OC (centres undefined)	i
O=C(N[C@H]1CCN2C(=O)c3cc(/C=C/c4ccccc4)ccc3NC(=O)[C@H]12)C1CCCC1	i
CC(=O)N1CCCC(c2[nH]ccc2C(=O)NCc2cc(C)nn2C)C1 (centres undefined)	i
Cc1ccc(Cn2c(=O)c3ccc(C(=O)NC(C)C)cc3n3c(=O)n(Cc4ccccc4C)nc23)cc1	i
CCC(C)NC(=O)c1ccc2c(=O)n(CCC(C)C)c3nn(Cc4cccc(F)c4)c(=O)n3c2c1 (centres undefined)	i
COc1cc(O)c2c(c1)C1OC1C[C@H](O)[C@H](O)C(=O)/C=C\C[C@H](C)OC2=O (some centres undefined)	?
COc1cc(SC)ccc1C(=O)N[C@H]1CCN2C(=O)N(c3cccc(C(F)(F)F)c3)C(=O)[C@@H]2C1	i
Cc1cccc(C(=O)N2CCC(N3CC4CC(C3)[C@H]3CCCC(=O)N3C4)CC2)c1 (some centres undefined)	i
Cc1onc(-c2cnn(C)c2NCc2ccc(C#N)cc2)c1C(=O)N1CCCC1	i
O=C(c1nc2c(o1)CCN(Cc1cccc(F)c1)CC2)N1CCOCC1	i
CCN1C(=O)c2cc(C(=O)NCCc3ccc(SC)cc3)nn2CC1(C)C(=O)NC1CCCC1 (centres undefined)	i
Cn1nc(C(=O)N2CCCC(CN3CCOCC3)CC2)c2ccccc21 (centres undefined)	i
CN(C)c1ccnc2sc3c(=O)n(N4CCCCCC4)cnc3c12	?
CCC(C)NC(=O)c1ccc2c(=O)n(C)c3nn(CC(=O)NCc4ccc(Cl)cc4)c(=O)n3c2c1 (centres undefined)	i
CC(C)CN1C(=O)N(Cc2ccccn2)C(=O)C12CCN(Cc1ccc3c(c1)CCO3)CC2	i
COc1ccc(-c2cc3n(n2)CC(C)(C(=O)NCc2ccccc2)N(c2ccc(C)c(C)c2)C3=O)cc1 (centres undefined)	i
New compounds follow.
SMILES	Methyltransferases
CN1C[C@@H](NS(=O)(=O)c2ccc(C#N)cc2)C[C@H]1c1nc(-c2ccc(Cl)cc2)no1	i
CC1(C(=O)NCc2ccccc2)Cn2nc(-c3ccccc3)cc2C(=O)N1Cc1ccccc1Br (centres undefined)	i
CCNC(=O)CN1CCC(=O)N(Cc2ccc(F)cc2)C(C(C)C)C1 (centres undefined)	i
C=CC(C)(CC/C=C(\C)C(=O)OC)OC1OC(COC(=O)CC(C)(O)CC(=O)O)C(O)C(O)C1O (centres undefined)	i
CCc1ccc(C2c3cccn3-c3sc4c(c3CN2C(=O)Nc2ccc(OC)cc2OC)CCCC4)cc1 (centres undefined)	i
NS(=O)(=O)C#Cc1ccccc1	?
CC[C@@]1(C(=O)O)C[C@H](C(=O)N(C)CCO)[C@H](c2ccc(F)cc2)N1C	i
CC[C@H]1OC(=O)[C@](C)(F)C(=O)[C@H](C)[C@@H](O[C@@H]2O[C@H](C)C[C@H](N(C)C)[C@H]2O)[C@](C)(OC)C[C@@H](C)C(=O)[C@@H](C)[C@H]2N(CCCCn3cc(-c4cccc(N)c4)nn3)C(=O)O[C@]12C	i
CCn1c(-c2nonc2N)nc2cncc(CNC3CCNCC3)c21	i
Cc1ncccc1OC1(C(=O)N2CCCC2c2nc(C(C)C)no2)CCNCC1 (centres undefined)	i
CCCN1C(=O)c2cc(C(=O)NCc3ccccc3OC)nn2CC1(C)C(=O)NC1CCCC1 (centres undefined)	i
COc1ccc(C(=O)Cn2nc3n(CCC(C)C)c(=O)c4ccc(C(=O)NCC(C)C)cc4n3c2=O)cc1	i
CC(C)COCC(CN(Cc1ccccc1)c1ccccc1)N1CCCC1 (centres undefined)	i
CC(C)n1cnc2c(-c3cnc(N)nc3)nc(N3CCOCC3)nc21	i
COc1ccc(OC)c2c1cc1n2CC(C)(C(=O)NC2CCC(C)CC2)N(Cc2cccs2)C1=O (centres undefined)	i
COc1ccccc1CNC(=O)c1cc2n(n1)CC(C)(C(=O)NC1CCCC1)N(C)C2=O (centres undefined)	i
CCc1ccccc1N1C(=O)c2c(NC(C)=O)c3cc(F)ccc3n2CC1(C)C(=O)NC1CCCC1 (centres undefined)	i
Cc1cc2[nH]c(=O)[nH]c2cc1S(=O)(=O)N1CCCCC1	i
COc1ccc(OC)c2c1cc1n2CC(C)(C(=O)NC2CCCCC2)N(Cc2ccccc2F)C1=O (centres undefined)	i
Cc1ccc(NC(=O)c2cc3n(n2)CC(C)(C(=O)NC2CCCCC2)N(C)C3=O)cc1Cl (centres undefined)	i
C1=C(c2nc(-c3ccncc3)cc3c2ccn3Cc2cccnc2)CCOC1	+
Cc1ccc(CNC(=O)Cn2ccc3cc(S(=O)(=O)N4CCCCC4)ccc32)cc1	i
COC(=O)c1ncn2c1C(=O)N(c1ccc(F)cc1)C(C)(C(=O)NCc1ccccc1)C2 (centres undefined)	i
CCCn1c(=O)c2cc(F)ccc2n2c(SCc3cccc(F)c3)nnc12	i
CCc1ccc(CNC(=O)C(CC)n2ccc3cc(S(=O)(=O)N4CCCCC4)ccc32)cc1 (centres undefined)	i

Laid out differently: results already given.
CC1(C(=O)NCc2ccccc2)Cn2nc(-c3ccccc3)cc2C(=O)N1Cc1ccccc1Br (centres undefined)
  Methyltransferases: i

Cc1ncccc1OC1(C(=O)N2CCCC2c2nc(C(C)C)no2)CCNCC1 (centres undefined)
  Methyltransferases: i

COc1ccc(OC)c2c1cc1n2CC(C)(C(=O)NC2CCCCC2)N(Cc2ccccc2F)C1=O (centres undefined)
  Methyltransferases: i

NS(=O)(=O)C#Cc1ccccc1
  Methyltransferases: ?

Next part:
SMILES	Methyltransferases
c1ccc(CN2CCn3c4c(c5cc(C6CCCCC6)ccc53)CCCC42)cc1 (centres undefined)	i
COCCNC(=O)c1cc2n(n1)CC(C)(C(=O)NCc1ccc(F)cc1)N(C)C2=O (centres undefined)	i
COc1ccccc1CNC(=O)C1(C)Cn2c(cc3ccccc32)C(=O)N1Cc1ccc(Cl)cc1 (centres undefined)	i
Nc1ccc(/C=C/C(=O)NCc2cc3cc(-c4ccc(C(=O)N5CCC(F)(F)CC5)cc4)cc(-c4ccc(F)cc4)c3o2)cn1	?
Cc1noc(CN2C[C@H](NC(=O)CNS(C)(=O)=O)[C@@H](C3CC3)C2)n1	i
CCN(CC)c1ncnc2c1ncn2[C@@H]1O[C@H](COP(=O)(O)OP(=O)(O)C(Br)(Br)P(=O)(O)O)[C@@H](O)[C@H]1O	i
CC#CC(=O)N1CCCC(C(=O)Nc2ccc(-c3cccc(OC)c3)cc2)C1 (centres undefined)	i
C=C1[C@@H](C2=CC(=O)OC2)CC[C@@]2(O)[C@@H]1CC1[C@H]2CC[C@@H]2C[C@@H](O[C@H]3O[C@@H](C)[C@@H](O[C@@H]4O[C@H](CO[C@@H]5O[C@H](CO)[C@@H](O)[C@H](O)[C@H]5O)[C@@H](O)[C@H](O)[C@H]4O)[C@H](OC)[C@H]3O)CC[C@]12C (some centres undefined)	i
CC1CCC(NC(=O)C2(C)Cn3c(cc4sccc43)C(=O)N2Cc2ccc(F)cc2)CC1 (centres undefined)	i
O=C(NCc1ccncc1)c1ccc2c(=O)nc3c(-c4cccc(F)c4)n[nH]n3c2c1	i
COc1ccc2cc3n(c2c1)CC(C)(C(=O)NC1CCCCC1)N(CCN1CCCCC1C)C3=O (centres undefined)	i
Cc1ccc(C)c(Cn2nc3n(C)c(=O)c4ccc(C(=O)NC5CCCCC5)cc4n3c2=O)c1	i
COC1C(OC(=O)/C=C/C=C/C=C/C=C/C(=O)O)CCC2(CO2)C1C1(C)OC1CC=C(C)C (centres undefined)	i
COC[C@@H]1CN(C(=O)CCc2c(C)nn(C)c2C)C[C@H]1c1ccccn1	i
CCOc1ccc(C(=O)Cn2nc3n(C)c(=O)c4ccc(C(=O)NC5CCCCC5)cc4n3c2=O)cc1	i
NC(=O)[C@@H](Cc1c[nH]c2ccccc12)NC(=O)[C@@H]1C[C@@H](NS(=O)(=O)c2cccs2)CCN1C(=O)[C@@H](O)[C@H](O)C(=O)O	i
Cc1cc(Cl)cc(Cl)c1CNCC1(O)CCCNC1 (centres undefined)	i
Cc1cc(F)c(C(=O)Nc2cccc(-c3nncn3C(C)C)n2)cc1-n1cnc(C2CC2)c1	?
COc1cc(C(=O)OC[C@H]2O[C@H](O[C@@]3(CO)O[C@@H](CO)[C@H](O)[C@H]3O)[C@H](O)[C@@H](O)[C@@H]2O)ccc1O	i
CCOC(=O)C1=C(CN2CCn3cccc3C2C)NC(=O)NC1c1ccc(C)cc1 (centres undefined)	i
Cc1ccc(NC(=O)CN(C)S(=O)(=O)c2ccc3[nH]c4c(c3c2)CCCC4)c(C)c1	i
Cc1nnc(-c2cc(-c3ccc(CO)cc3)ccn2)n1Cc1ccccc1	i
CN(CC(=O)N1CCC2(CCNCC2)CC1)Cc1cccnc1	i
COc1ccccc1CC(C(=O)O)N(C)C(=O)c1ccccc1 (centres undefined)	i
Cc1cc(C(=O)N2CCn3nc(C(C)O)cc3C2)c2ccc(F)cc2n1 (centres undefined)	i
C=CCc1cc(-c2c(-c3ccccc3)ncn2CCOCCO)cc(OC)c1O	i

Some of these compounds in order of count of non-hydrogen atoms, ascending.
SMILES	Methyltransferases
CC#CC(=O)N1CCCC(C(=O)Nc2ccc(-c3cccc(OC)c3)cc2)C1 (centres undefined)	i
Cc1ccc(NC(=O)CN(C)S(=O)(=O)c2ccc3[nH]c4c(c3c2)CCCC4)c(C)c1	i
Cc1ccc(C)c(Cn2nc3n(C)c(=O)c4ccc(C(=O)NC5CCCCC5)cc4n3c2=O)c1	i
COc1ccc2cc3n(c2c1)CC(C)(C(=O)NC1CCCCC1)N(CCN1CCCCC1C)C3=O (centres undefined)	i

2 records drawn at random from the list so far, as already listed:
SMILES	Methyltransferases
COc1cc(C(=O)OC[C@H]2O[C@H](O[C@@]3(CO)O[C@@H](CO)[C@H](O)[C@H]3O)[C@H](O)[C@@H](O)[C@@H]2O)ccc1O	i
COc1ccccc1CNC(=O)C1(C)Cn2c(cc3ccccc32)C(=O)N1Cc1ccc(Cl)cc1 (centres undefined)	i

These rows are one share of the data; rates above refer to the full screens.
